Assay outcomes from PubChem BioAssay.
YopH PTP inh: blocks Yersinia enterocolitica YopH tyrosine phosphatase; fluorescence Ex485/Em525; inhibition, %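 (about 10 µM by stock and volumes)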; 0.16% of 140,000 active;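 active means inhibition of 50% or more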;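 further: controls were vehicle for no effect and minimum signal wells for full effect; inactives centre near -20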
Mtb growth: M. tuberculosis H37Rv growth inhibitors, H37Rv strain (AID 1626); inhibition, % at 10 µM, or IC50 in µM where a hit was titrated; 0.95% of 220,000 active; M. tuberculosis H37Rv growth inhibition; higher % means a stronger effect;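 active means confirmed in a dose series; inconclusive means inhibition above 80% but not taken into the dose series; inactive means below 80% or under 30% at every dose of the series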;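 further: bacteria incubated seven days before Alamar blue readout; 0% = bacteria only wells and 100% = bacteria with antibiotic wells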
Mtb betalactam: beta-lactam sensitization of Mtb H37Rv. inhibition, % at 25 µM. AID 434955. 0.27% of 330,000 active. M. tuberculosis H37Rv growth with meropenem, percent inhibition; hits of this screen are not shown here;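 active means about 74% or more and at least 40 points above the plate without the antibiotic, then above 30% in a dose series; inconclusive means first-round hits that could not be retested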;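 further: growth measured after seven days incubation then overnight dye step; 0% = bacteria only wells and 100% = bacteria with antibiotic; twin plates without the antibiotic show which effects depend on it; some results filed as inactive read as strong as hits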
Arbovirus inh: blocks arbovirus infection; arbovirus infection cell-based antiviral screen; inhibition, % at 10 µM; 0.37% of 200,000 active;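 active means inhibition from about 30%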;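 further: bluetongue infection of BSR cells; cell survival read as ATP light after 72 h; 0% = infected wells without compound and 100% = uninfected wells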
RecA intein inh: inhibitors of M. tuberculosis RecA intein splicing; P9WHJ3; cell-free RecA intein splicing, fluorescence; inhibition, %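 (about 9 µM by stock and volumes)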; 0.75% of 290,000 active; AID 2221; in the data active means inhibition above about 30%; inconclusive means no clear call, values can overlap the other calls;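 further: 0% = vehicle wells and 100% = reference inhibitor control wells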
Target sequence (P9WHJ3 whole entry, looked up): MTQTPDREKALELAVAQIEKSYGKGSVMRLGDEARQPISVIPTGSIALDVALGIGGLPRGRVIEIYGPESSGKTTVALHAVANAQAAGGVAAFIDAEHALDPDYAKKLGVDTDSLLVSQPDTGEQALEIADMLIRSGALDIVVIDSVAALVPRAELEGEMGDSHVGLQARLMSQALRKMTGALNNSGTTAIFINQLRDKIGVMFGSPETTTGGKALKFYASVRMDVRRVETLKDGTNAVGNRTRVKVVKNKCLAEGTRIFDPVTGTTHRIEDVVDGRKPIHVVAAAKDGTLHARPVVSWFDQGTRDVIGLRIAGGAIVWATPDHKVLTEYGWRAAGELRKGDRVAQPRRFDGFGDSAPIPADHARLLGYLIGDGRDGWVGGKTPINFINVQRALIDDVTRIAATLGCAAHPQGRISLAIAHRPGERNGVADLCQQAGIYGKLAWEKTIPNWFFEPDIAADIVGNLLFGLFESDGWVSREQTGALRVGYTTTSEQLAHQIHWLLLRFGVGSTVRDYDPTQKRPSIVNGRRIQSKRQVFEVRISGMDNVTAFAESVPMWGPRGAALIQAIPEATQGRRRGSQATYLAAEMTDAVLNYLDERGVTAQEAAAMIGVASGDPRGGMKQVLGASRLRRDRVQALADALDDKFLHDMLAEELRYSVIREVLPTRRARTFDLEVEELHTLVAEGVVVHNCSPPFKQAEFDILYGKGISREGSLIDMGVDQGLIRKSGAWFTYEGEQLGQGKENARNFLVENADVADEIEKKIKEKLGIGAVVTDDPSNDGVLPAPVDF
Arbovirus inh repeat: further read-out of Arbovirus inh, marked with its call; inhibition, %; measured here: 10K subset replicate screen; many hits read low in the repeat;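 first of two repeat runs on a subset; 0% = infected and 100% = uninfected wells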
Active calls of the source: *; ? = inconclusive; nt = not tested or not shown; & = joins results of further samples.

SMILES | YopH PTP inh | Mtb growth | Mtb betalactam | Arbovirus inh | RecA intein inh | others
CCS(=O)(=O)C(C)(CCl)C(=O)Nc1ccc(C(=O)OC)cc1 (stereo not given) | nt | -2% | 0 | nt | -1.9
CN(Cc1nccs1)C(=O)c1cc(COc2cccc3cnccc23)on1 | nt | nt | -1 | nt | 2.1
COc1ccc(-c2ccc(C3C(C#N)=C(N)Oc4n[nH]c(C)c43)o2)cc1 (stereo not given) | -7 | ? | 98 | -7 | nt
O=C(Nc1nnc(C23CC4CC(CC(C4)C2)C3)s1)c1ccco1 | -27 | -6% | 5 | -6 | 4.4
O=C(CCCn1c(=O)[nH]c2ccccc2c1=O)NC1CCCCCC1 | -44 | -7% | -4 | 5 | 1.3
COc1ccccc1NC(=O)CC(NC1CCCCC1)C(=O)O (stereo not given) | -8 | 4% | -3 | 5 | 0.8
Cc1sc(NC(=O)c2ccco2)c(C(c2cccnc2)N2CCN(C)CC2)c1C (stereo not given) | -44 | -17% | -8 | 4 | -1.6
O=C(Nc1cccc(Cl)c1)N(CCN1CCOCC1)Cc1ccccc1F | -21 | -23% | 1 | 7 | 0.0
CCSc1nnc(NC(NC(C)=O)(C(F)(F)F)C(F)(F)F)s1 | -29 | -8% | 2 | 3 | 0.0
CC(=C/C(=O)O)/C=C/c1ccc([N+](=O)[O-])cc1 | -12 | -6% | -7 | 5 | nt
CCOC(=O)c1csc(-c2ccc(OC)c(OC)c2)n1 | nt | -9% | 4 | 24 | 0.6
COc1ccccc1OC(C)C(=O)N1CCc2ccccc21 (stereo not given) | nt | nt | -8 | nt | -1.2
COc1ccc(NC(=O)CSc2nnc(-c3ccccc3C)n2N)cc1OC | -30 | -10% | -2 | -3 | 0.5
COc1ccc(C(=O)NC(=S)N2CCOCC2)cc1OC | nt | -8% | 10 | -2 | -3.2
COc1ccc(NC(=O)CN(C)C(=O)c2cccc3ccccc23)cc1 | nt | nt | -8 | nt | 1.6
Cc1cc(C)nc(CCNC(=O)c2cc(COc3c(C)cccc3C)on2)n1 | nt | nt | -3 | nt | -0.8
Cc1cc([N+](=O)[O-])cc(/C=N\NC(=O)C2COc3ccccc3O2)c1O (stereo not given) | nt | -7% | 39 | nt | 6.3
O=C(O)C1CSC(c2ccccc2Cl)N1C(=O)c1ccc(Cl)cc1 (stereo not given) | -49 | -2% | -1 | 9 | 1.3
CC(=O)N1CCC(c2c[nH]c3ccccc23)CC1 | nt | -8% | -3 | nt | -0.5
CC(=O)Nc1ccc(S(=O)(=O)N(C)CC(=O)OC(C)C(=O)NC2CCCC2)cc1 (stereo not given) | nt | nt | 1 | nt | 0.7
CCOC(=O)C1=C(SCC)c2cc3c(n2C1=O)CCCC3 | -15 | -14% | 9 | -4 | nt
O=C1c2cccc3cccc(c23)C(=O)N1CCCN(C(=O)c1cccs1)c1cccc(F)c1 | -30 | -1% | -5 | 5 | -0.2
Cc1cc(C)cc(NC(=O)c2cc(C)nn2C)c1 | -31 | -1% | -2 | -2 | -1.7
COc1ccc(Cl)cc1NS(=O)(=O)c1cccc(C(=O)NCC2CCCO2)c1 (stereo not given) | nt | nt | -15 | nt | 5.9
CCN(Cc1ccncc1)Cc1ccc(OC)cc1OC | nt | nt | 2 | nt | 1.3
Cc1ccc2c(c1)NCCO2 | -31 | 0% | -2 | 4 | 2.3
CCN(CC)S(=O)(=O)c1ccc(OC)c(NC(=O)COc2ccccc2[N+](=O)[O-])c1 | nt | -9% | 6 | -3 | -0.5
C[C@@H]1C[C@H](Nc2ccccc2)c2ccccc2N1C(=O)c1cccnc1 | -6 | 1% | -8 | -8 | 2.3
C=CCNC(=O)N[C@@H](Cc1ccccc1)C(=O)OC | nt | -5% | -1 | nt | 0.8
O=C1CN(C(=O)COc2ncnc3ccccc23)c2ccccc2N1 | -22 | -2% | -2 | -4 | -3.9

4 successive records out of the list so far, for reference:
SMILES | YopH PTP inh | Mtb growth | Mtb betalactam | Arbovirus inh | RecA intein inh | others
COc1ccc(Cl)cc1NS(=O)(=O)c1cccc(C(=O)NCC2CCCO2)c1 (stereo not given) | nt | nt | -15 | nt | 5.9
CCN(Cc1ccncc1)Cc1ccc(OC)cc1OC | nt | nt | 2 | nt | 1.3
Cc1ccc2c(c1)NCCO2 | -31 | 0% | -2 | 4 | 2.3
CCN(CC)S(=O)(=O)c1ccc(OC)c(NC(=O)COc2ccccc2[N+](=O)[O-])c1 | nt | -9% | 6 | -3 | -0.5

(cont.)
SMILES | YopH PTP inh | Mtb growth | Mtb betalactam | Arbovirus inh | RecA intein inh | others
O=C(NCc1ccc(F)cc1)C1CCCN(S(=O)(=O)c2cccnc2)C1 (stereo not given) | -19 | -17% | -11 | -5 | 3.1
CCOCCCN(C)C1CCN(C(=O)c2oc3ccccc3c2NC(=O)Cc2cccc([N+](=O)[O-])c2)CC1 | nt | nt | 5 | nt | 8.7
O=S(=O)(Nc1ccccn1)c1cc(Cl)ccc1Cl | nt | nt | 2 | nt | -1.0
COc1ccc(NC(=O)c2ccc(-c3ccc(OC)cc3)s2)cc1 | nt | 62% | 96 | -13 | 0.4
O=CN1CCN(C2CC(=O)N(c3ccc4c(c3)OCO4)C2=O)CC1 (stereo not given) | -21 | -1% | -4 | 0 | nt
COc1cc(NC(=O)C/C(C)=N/NC(=O)c2cccs2)c(OC)cc1Cl | nt | -3% | 66 | -12 | 3.2
CC(=O)Nc1cc(O)cc(O)c1 | nt | -9% | -3 | nt | -3.7
COc1ccccc1NC(=O)Cc1nn(C)c(=O)c2ccccc12 | 37 | -2% | 1 | 4 | -1.5
Fc1ccc(-c2nnc(Cc3nnc(-c4ccc(F)cc4)o3)o2)cc1 | -31 | -8% | ? | -1 | -4.7
c1ccc2cc(OCCN3CCCC3)ccc2c1 | -54 | -3% | 5 | -1 | -2.2
Oc1ccc(/C=N/Nc2ncc(Br)cn2)c(O)c1 | -3 | 8% | 10 | -21 | -5.5
C=CCOc1c(Br)cc(CNc2nccs2)cc1OC | 2 | 0% | 87 | -5 | 2.3
Cc1cccc2c(C(=O)N3CCCCC3)cc(-c3ccccc3)nc12 | nt | nt | 22 | nt | 5.2
Cc1ccc(Cl)cc1N1CCN(CC(O)COCc2ccco2)CC1 (stereo not given) | 2 | 17% | 7 | -24 | 0.0
CN(C(=O)c1cccc(C#N)c1)c1nnc(-c2ccccn2)s1 | -29 | 0% | -4 | 1 | 0.1
CCCCn1c(O)c(C=NC2CC3CCC2(C)C3(C)C)c(=O)[nH]c1=O (stereo not given) | -52 | -2% | 7 | -6 | 1.8
COc1ccc(/C=N/N(C)C2=NCCN2)c(OC)c1OC | nt | nt | -5 | nt | -2.6
COc1cccc(C(C(=O)NC2CCCC2)N(Cc2ccccc2OC)C(=O)c2ccco2)c1 (stereo not given) | -21 | 3% | -6 | -4 | 1.9
O=c1c2c3c(sc2ncn1/N=C/c1ccco1)CCCC3 | -32 | -9% | 8 | 1 | 2.7
COc1ccc(NC(=S)NCC2CCCO2)c(OC)c1 (stereo not given) | -23 | -9% | -1 | -2 | 1.8
CCOC(=O)CN1N=C(/C=C/c2ccc(OC)cc2)CCC1=O | -50 | -6% | -13 | -1 | -2.8
Cc1c([N+](=O)[O-])c(C(=O)Sc2ccc(Br)cc2)nn1C | nt | 1% | -2 | nt | 8.7
O=C(CCC(=O)Nc1ccccc1Cl)NNC(=O)Nc1cccc([N+](=O)[O-])c1 | nt | nt | 5 | nt | 0.2
Oc1cc2c(cc1CN1CCN(c3ccc(F)cc3)CC1)OCO2 | nt | nt | -2 | nt | -2.5
COc1cccc(C(=O)OCc2ccccc2C#N)c1O | -35 | 3% | 2 | -1 | -2.3
Cc1ccc(CNC(=O)C2CN(S(C)(=O)=O)c3cc(Cl)ccc3O2)cc1 (stereo not given) | nt | 1% | -2 | 3 | -0.4
COc1ccc(/C=C2\SC(=S)N(CCC(=O)NCCCn3ccnc3)C2=O)cc1 | nt | nt | ? | nt | 16
CCOc1ccc2nnnn2n1 | -26 | -3% | 6 | 3 | -1.3
CC(=O)c1ccc(Nc2cc(C)nc3ccccc23)cc1 | nt | 2% | 3 | -19 | -0.2
Cc1ccc(NC(=O)CSc2nc3c(c(=O)[nH]2)CCC3)c(C)c1 | nt | nt | 3 | nt | -0.6
CCc1nnc(NC(=O)c2ccc(Br)c(S(=O)(=O)N3CCOCC3)c2)s1 | nt | nt | 4 | nt | 2.0
COc1ccc(C(c2c(C)[nH]n(C(N)=S)c2=O)C(C#N)C#N)cc1 (stereo not given) | -39 | 0% | -7 | -7 | nt
COc1cc2cc(CN(CCc3ccccc3C)C(=S)NCCCN(C)C)c(=O)[nH]c2cc1OC | -16 | -2% | -4 | -29 | -5.4
Cc1nonc1CC(=O)N1CCCC(C(=O)c2cccc(C(F)(F)F)c2)C1 (stereo not given) | nt | 6% | -1 | 8 | -2.0
O=C(N/C(=C/c1ccccc1)C(=O)N1CCCCC1)c1ccccc1 | nt | nt | -2 | nt | 0.4
COc1ccc(C(=O)N/N=C/c2c[nH]c3ccccc23)cc1 | nt | nt | 0 | nt | -0.8
CC(=O)Nc1cccc(CCc2nc3ccccc3[nH]2)c1 | nt | nt | -9 | nt | 2.2
Cc1cccc(-n2c(SCc3cc(=O)n4c(C)cccc4n3)nc3[nH]ncc3c2=O)c1 | -40 | nt | 2 | 9 | 0.0
COC(=O)c1ccc(-c2csc(NC(=O)C3=COCCO3)n2)cc1 | nt | nt | ? | nt | 1.8
CC1CCCN(C(c2cccs2)c2nnnn2Cc2ccccc2)C1 (stereo not given) | -17 | -4% | 3 | 1 | 10
CCCCN(C)C(=S)Nc1ccc2nc(N3CCN(CC)CC3)cc(C)c2c1 | nt | 2% | 2 | -26 | -6.4
CN1CCNC(=O)C1CC(=O)O (stereo not given) | -26 | -2% | -1 | 7 | -1.9
CCCn1c(CCC(=O)O)nc2cc(S(=O)(=O)N3CCCC3)ccc21 | nt | -4% | -7 | nt | 0.1
CC(=O)n1nc(-c2ccncc2)nc1SCC(=O)Nc1cccc(Cl)c1 | nt | nt | 2 | nt | 0.0
O=C(CN1CCN(c2ccccn2)CC1)Nc1ccccc1F | nt | nt | 2 | nt | 3.6
O=C(CN(Cc1ccc(Cl)cc1)C(=O)c1csnn1)NCc1ccc(F)cc1 | nt | nt | 0 | nt | -0.9
CC(NC(=O)c1ccccc1[N+](=O)[O-])C1CC2CCC1C2 (stereo not given) | nt | nt | 3 | nt | 0.3
COc1cc(NC(=O)Nc2cccc(Cl)c2)c(C(=O)O)cc1OC | nt | -10% | 2 | nt | 0.2
COc1ccc(OCC(O)Cn2c(N3CCCCC3)nc3c2c(=O)[nH]c(=O)n3C)cc1 (stereo not given) | nt | nt | 2 | nt | 0.1
CCN(C(=O)COC(=O)c1ccc(Br)o1)C1CCCCC1 | nt | 3% | 1 | 13 | -2.0
O=C(O)COc1ccccc1C1C2C(=O)N(c3ccccc3)C(=O)C2ON1c1ccccc1 (stereo not given) | -49 | -5% | 2 | 3 | -1.0
C[C@H](N)C(=O)OCc1ccc([N+](=O)[O-])cc1 | nt | -5% | -3 | nt | -0.9
O=C(Cn1cc(C(=O)c2cccs2)c2ccccc21)NC1CCCCC1 | -10 | -4% | 1 | 21 | -0.1
COc1ccccc1CNC(=O)COC(=O)CCC(=O)c1cccs1 | nt | -2% | 0 | 0 | 3.0
Cc1ccc(NC(=O)C(=O)c2ccc(C)cc2)cc1 | nt | nt | 1 | nt | 1.8
CN(C)CCNc1oc(-c2ccccc2F)nc1C#N | 3 | -4% | -8 | 4 | -2.2 | Arbovirus inh repeat=-4
Cc1cc(/C=C2\SC(=S)N(C)C2=O)c(C)n1-c1cccc(O)c1 | nt | 6% | 97 | nt | 11
CCOC(=O)C1=C(c2ccccc2)NC(=O)NC1c1ccc(O)c(Cl)c1 (stereo not given) | nt | nt | -7 | nt | -1.1
COc1ccc(S(=O)(=O)N(C)CC(=O)Nc2ccc(F)cc2)cc1 | -9 | -2% | 2 | 2 | 2.7
Cc1cc(C)n(C(=O)CCCCCCCCC(=O)n2nc(C)cc2C)n1 | -11 | -2% | 52 | 5 | 2.6
N#CC(=C=[N-])c1nc2ccccc2nc1-[n+]1ccccc1 | -8 | -10%&0% | -4&-5 | 6 | 3.4&-3.5

Some of these compounds in order of length of the SMILES, high to low.
SMILES | YopH PTP inh | Mtb growth | Mtb betalactam | Arbovirus inh | RecA intein inh | others
O=C(CN(Cc1ccc(Cl)cc1)C(=O)c1csnn1)NCc1ccc(F)cc1 | nt | nt | 0 | nt | -0.9
O=C(Cn1cc(C(=O)c2cccs2)c2ccccc21)NC1CCCCC1 | -10 | -4% | 1 | 21 | -0.1
CCN(C(=O)COC(=O)c1ccc(Br)o1)C1CCCCC1 | nt | 3% | 1 | 13 | -2.0

Some of the compounds tested; count on the stated rates, not on these rows.
